Screening results: PubChem, National Center for Advancing Translational Sciences (NCATS)
HPGD inh: qHTS Assay for Inhibitors of HPGD (15-Hydroxyprostaglandin Dehydrogenase). 15-hydroxyprostaglandin dehydrogenase [NAD(+)] (Homo sapiens), P15428. purified HPGD, NADH fluorescence kinetic, PGE2 substrate. Potency, µM, inactives show at the top dose activity change, negative = inhibition, most hits filed as inhibitors. 150,000 tested, 4.3% active; active = well fitted inhibition curve with a large enough effect (not every such curve was filed as active); inconclusive = small, poorly fitted or top-dose-only effect, or another doubt; inactive = no such curve, though single readings can be large or run the other way;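 also: top concentration of the series not given in the record; plate controls included wells without enzyme; inactives centre near -10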
Target sequence (P15428 whole entry, looked up): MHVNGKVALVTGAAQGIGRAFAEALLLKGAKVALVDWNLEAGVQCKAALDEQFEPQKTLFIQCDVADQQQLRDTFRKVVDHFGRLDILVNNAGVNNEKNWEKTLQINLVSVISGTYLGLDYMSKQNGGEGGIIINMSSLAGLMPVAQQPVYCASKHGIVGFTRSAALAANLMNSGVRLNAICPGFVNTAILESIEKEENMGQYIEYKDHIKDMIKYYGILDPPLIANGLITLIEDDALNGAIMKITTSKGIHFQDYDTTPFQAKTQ
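NADH formation kinetics: reaction with 30 uM PGE2 and 1 mM NAD+ (final), 20 nM enzyme, Tris-HCl pH 8 with Tween 20, after 15 min compound preincubation at room temperature. Fluorescence change, last versus first of five reads.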
* marks the source's active call; other numbers are inactive results; ? = inconclusive; & = joins results of further samples. % is scaled to controls: 0 for no effect and ±100 for the full control effect; potency is read from the fitted curve at half-maximal effect. Only part of the results is shown; the hit share may differ from the screen's.

SMILES	HPGD inh
Cn1c(SCC(=O)OCc2ccccc2)nnc1-c1ccco1	-9.6%
CC(=O)N1CCN(C(=O)CCc2c[nH]c3ccccc23)CC1	-10.8%
CC(C)(C)OC(=O)N1CCOCCOCCN(C(=O)OC(C)(C)C)CCOCC1	-10.9%
CCn1c(COc2ccccc2)nnc1SCC(=O)Nc1cc(OC)ccc1OC	6.1%
Cc1cccc(C)c1Oc1nc(-c2ccccc2)ncc1S(=O)(=O)c1ccccc1	-14.3%
O=C(O)CN(c1ccccc1F)S(=O)(=O)c1ccccc1	-8.7%
c1ccc2c(c1)[nH]c1c(N3CCSCC3)ncnc12	-1.0%
COc1cccc(NC(=O)C2CCN(S(=O)(=O)c3ccc4c(c3)OCCO4)CC2)c1	-1.8%
Cc1ccc(N(C(=O)c2ccc3c(c2)OCO3)C2C=CS(=O)(=O)C2)cc1 (stereo not given)	-2.3%
Brc1ccc(-c2nnc3c4ccccc4nc(N4CCOCC4)n23)cc1	-3.4%
COc1ccc(NC(=O)c2ccco2)cc1N	-18.7%
CCc1ccc(NC(=O)C/C(C)=N/NC(=O)OCc2ccc(OC)cc2)cc1	-6.9%
CCOC(=O)Cc1csc(NC(=O)COc2ccc(OC)cc2)n1	-8.5%
CC(C)COC(=O)Nc1ccc(C(=O)O)cc1	-7.9%
COc1ccccc1N1CCN(CCc2n[nH]c(=S)n2-c2ccccc2)CC1	-19.1%
COc1ccc(C)cc1C(=O)C1CC(C(=O)O)C(C)(C)C1C (stereo not given)	-10.7%
Cc1cc(-n2c(C)cc(C(=O)CN3C(=O)NC4(CCCCC4C)C3=O)c2C)no1 (stereo not given)	-7.6%
COc1ccc(S(=O)(=O)N2CCC(n3cnc4cc(C(F)(F)F)ccc43)CC2)cc1	-12.1%
COc1cccc(-c2nc(CS(=O)CC(=O)NCCCOC(C)C)c(C)o2)c1 (stereo not given)	-3.9%
CCCS(=O)(=O)N1CCCC(C(=O)NCCc2ccc(OC)c(OC)c2)C1 (stereo not given)	-6.7%
Cc1cc(C)c(S(C)(=O)=O)c(S(=O)c2ccc(Cl)cc2)n1 (stereo not given)	-20.8%
COC(=O)C(C)Sc1nnc(Cc2cc(=O)[nH]c(=O)[nH]2)n1-c1ccc(Cl)cc1 (stereo not given)	-0.3%
O=C(Nc1cccc(Cl)c1)C1CCCN(S(=O)(=O)c2cnc[nH]2)C1 (stereo not given)	-9.6%
CCOc1ccc(NCCC(=O)c2ccc3c(c2)OCO3)cc1	-2.8%
CSc1nnnn1CCn1nnnc1SC	-21.2%

A draw from above in order of length of the SMILES, rising:
SMILES	HPGD inh
COc1ccc(NC(=O)c2ccco2)cc1N	-18.7%
Cn1c(SCC(=O)OCc2ccccc2)nnc1-c1ccco1	-9.6%
CC(=O)N1CCN(C(=O)CCc2c[nH]c3ccccc23)CC1	-10.8%
COc1ccc(C)cc1C(=O)C1CC(C(=O)O)C(C)(C)C1C (stereo not given)	-10.7%
CCn1c(COc2ccccc2)nnc1SCC(=O)Nc1cc(OC)ccc1OC	6.1%
COC(=O)C(C)Sc1nnc(Cc2cc(=O)[nH]c(=O)[nH]2)n1-c1ccc(Cl)cc1 (stereo not given)	-0.3%

(list continues)
SMILES	HPGD inh
Nc1ccc(S(=O)(=O)NC2(C(F)(F)F)NC(=O)N(c3ccccc3Cl)C2=O)cc1 (stereo not given)	-8.0%
Cc1sc2ncnc(N/N=C/c3ccccc3O)c2c1C	-18.8%
CN1CCC(=NNC(=O)c2ccc(N(Cc3ccccc3Cl)S(C)(=O)=O)cc2)CC1	-1.0%
Cc1ccc(-c2nnn(CC(=O)N(c3cccc(F)c3)C(C(=O)NC3CCCC3)c3ccco3)n2)o1 (stereo not given)	-8.9%
CCOc1ccc(CCNC(=O)C2CCCN(c3nn4c(=O)cc(C)nc4s3)C2)cc1OCC (stereo not given)	-3.0%
N/C(=N\c1nc2c(c(=O)[nH]1)CCC2)Nc1ccccc1C(F)(F)F	-2.8%
Nc1nc(SCC(=O)NC2CCCCC2)[nH]c(=O)c1-c1ccccc1	-8.5%
O=C(OCc1ccccc1)c1ccccc1	-12.8%
COc1ccc(Nc2oc(-c3cccs3)nc2C#N)cc1	?
C1CCN(CCCNC2C3CC4CC(C3)CC2C4)C1 (stereo not given)	0.9%
C/C(=N\NC(=O)Cc1ccccc1)c1cccs1	-4.2%
O=C(/C=C/c1ccccc1)N/C(=C/c1ccccc1)C(=O)NCCCO	-0.6%
Cc1cc(OCC(=O)Nc2ccc(S(=O)(=O)N3CCN(C)CC3)cc2)cc(C)c1Cl	-14.1%
O=C(N/N=C/c1ccccc1)c1cc(=O)[nH]c2ccccc12	-14.2%
COc1ccc2cc(C(c3nnnn3Cc3ccc(F)cc3)N3CCCCCC3)c(=O)[nH]c2c1 (stereo not given)	?
CCOc1ccc(N/C=C/C(=O)c2ccc(OC)cc2)c([N+](=O)[O-])c1	-8.5%
COc1ccc(-c2c(-c3ccc(O)cc3O)n[nH]c2C)cc1OC	-26.6%
CCN(CC)S(=O)(=O)c1cccc(NC(=O)CCSc2ccc(Cl)cc2)c1	-11.7%
Cc1ccc2c(c1)N(CC(=O)c1cccc(Cl)c1)C(=O)C(C)O2 (stereo not given)	-9.2%
C=CCSc1nnc(CCCCCN2C(=O)c3cccc4cccc(c34)C2=O)o1	?
CCc1nc(SCC(=O)Nc2cc(C)on2)c2c(C)c(C)sc2n1	-0.7%
Cc1ccccc1-n1nnnc1-c1ccccc1	-12.8%
Cn1c(=O)n(CC(=O)N2CCOCC2)c2ccccc21	0.9%
Cc1ccc(Nc2cc(C)nc(N3CCOCC3)n2)c(C)c1	-12.7%
CCC1(C)Cc2ccccc2-c2nc(NCCO)[nH]c(=O)c21 (stereo not given)	?
Next section
SMILES	HPGD inh
CCc1c(C)sc(NC(=O)c2cc(-c3ccco3)on2)c1C#N	?
CCCNc1[nH]c(=O)n(C)c(=O)c1N=O	-5.2%
O=c1c2ccccc2nc(CSc2nnnn2-c2ccccc2)n1-c1cccc(C(F)(F)F)c1	-10.3%
Cc1nn(-c2nc3ccccc3[nH]2)c(N)c1-c1ccccc1	?
Nc1nonc1-c1nc2ccccc2n1Cc1ccc(Cl)cc1	-5.6%
COC(=O)c1ccccc1NC(=O)N1c2ccccc2CC1C (stereo not given)	?
CN(C)C(=O)CN1C(=O)C2CCCCN2C(=O)c2ccccc21 (stereo not given)	-2.2%
CC1C(C#N)=C(N)OC2=C1C(=O)CC(C)(C)C2 (stereo not given)	?
CCOC(=O)c1ccc(N2C(=O)c3n[nH]c(C)c3C2c2ccccc2)cc1 (stereo not given)	-13.4%
COc1ccc2c(c1)CCC/C2=N\NC(=O)c1ccoc1C	-18.4%
COc1cccc(C(=O)N(C)c2nnc(-c3ccncc3)s2)c1	-11.7%
Cc1ccccc1-n1c(CSC(=N)N)nc2ccccc2c1=O	?
CCOC(=O)N1CCN(C(=O)c2oc3ccc(S(=O)(=O)N4CCCCCC4)cc3c2C)CC1	-6.4%
CCN(CC)CCCNC(=O)c1cc2c(=O)n(C)c3ccccc3c2n1C	-20.3%
Cn1nc(-c2ccc(Cl)cc2)nc2c(=O)n(C)c(=O)nc1-2	?
CCc1ccc(Oc2cc(Cl)nc(N)n2)cc1	-2.6%
CSCCC(C(=O)NCc1cccs1)N1C(=O)c2ccccc2C1=O (stereo not given)	-6.2%
O=C(N=Nc1c(O)[nH]c2ccc(Br)cc12)c1cc(-c2cccc3ccccc23)n[nH]1	-12.2%
COc1ccc(C(=O)Nc2ccccc2C(=O)NC(Cc2ccc(O)cc2)C(=O)NNC(=O)c2ccc(C)cc2)cc1 (stereo not given)	?
CCOCC(=O)Nc1nc2ccccc2s1	-3.2%
COC(=O)/C=C1\N/C(=N\c2nc(C)cc(C)n2)N(c2ccc(C)c(C)c2)C1=O	-5.4%
O=S(=O)(NC1=NCCCCC1)c1cccs1	-18.8%
COc1ccc(C(=O)Nc2ccccc2-c2nnn(CC(=O)Nc3ccc4c(c3)OCCO4)n2)cc1	-9.4%
O=C(COC(=O)c1ccc(CO)cc1)NCc1cccs1	31.6µM*
COc1ccc(S(=O)(=O)NCc2ccc(C(=O)N3CCc4ccccc4C3)cc2)cc1	2.82µM*
Continued:
SMILES	HPGD inh
Cc1ccc(C(=O)NCCSCc2ccccc2)cc1[N+](=O)[O-]	-2.6%
CCOC(=O)c1c(C)[nH]c(C)c1C(=O)CN1C(=O)NC2(CCC(C)CC2)C1=O (stereo not given)	-0.7%
C=C1C(C(=O)N2CCOCC2)C1C(=O)N1CCOCC1 (stereo not given)	1.5%
Cc1cc(NS(=O)(=O)c2ccc(NC(=O)Nc3cccc(Cl)c3)cc2)no1	-14.6%
COc1ccc(/C=C(\C#N)C(=O)Nc2cc(S(=O)(=O)N3CCCCC3)ccc2N2CCCCC2)cc1	-20.8%
N#CC1=C(N)Oc2cc(O)ccc2C1C1CCCCC1 (stereo not given)	-8.6%
COc1ccccc1C(=O)NCC(=O)OC(C)C(=O)NC(=O)NC1CCCCC1 (stereo not given)	-6.3%
Cc1ccc2c(c1)c1ncnc(N3CCN(c4ccccc4)CC3)c1n2C	?
Cc1c(C(=O)OC(C)C)sc(NC(=O)c2cccnc2)c1C#N	-16.3%
CCCc1[nH]nc2c1C(C1CCCCC1)C(C#N)=C(N)O2 (stereo not given)	-1.6%
N#Cc1ccc(CN2CCC3(CC2)CCN(C(=O)c2ccncc2)CC3)cc1	1.5%
CC(C)C(c1nnnn1C1CCCCC1)N1CCOCC1 (stereo not given)	-15.7%
CC1(C(=O)OCC(=O)N2c3ccccc3Sc3ccccc32)CC1(Cl)Cl (stereo not given)	-9.0%
NCCNCCNCCNCCN	-8.3%
O=C(CC(=O)NC1CCCCC1)N/N=C/c1ccc(Cl)cc1	-8.4%
COc1ccc(C(CC(=O)c2ccccc2)S(=O)(=O)c2ccccc2)cc1 (stereo not given)	-26.2%
Cn1c2c(c(=O)n(C)c1=O)C1c3ccccc3OCC1C(C)(C)O2 (stereo not given)	-11.7%
Cc1ccc(-n2c(C)cc(C(=O)COC(=O)c3ccc[nH]c3=O)c2C)cc1	-4.5%
Cc1nn(-c2ccccc2)c(/N=C/c2ccccc2O)c1-c1ccccc1	-25.8%
COc1ccc(C2=CC(=O)OC3(CCCC3)O2)cc1	-5.2%
CCCCC[C@H](O)/C=C/C=C\C=C\C=C\[C@@H](O)[C@@H](O)CCCC(=O)O	0.6%
CCN(CC)c1ccc2cc(C(N)=O)c(=O)oc2c1	?
Cc1nn(S(=O)(=O)c2ccc(Cl)cc2)c(C)c1Sc1ccc([N+](=O)[O-])cc1	-17.2%
CC(C)C(c1nnnn1Cc1ccccc1)N1CCN(Cc2ccc3c(c2)OCO3)CC1 (stereo not given)	-11.6%
Cc1ccc(NC(=O)COC(=O)c2ccc3c(c2)NC(=O)C2CCCN32)cc1 (stereo not given)	-22.5%

Entries from the list above with two or more sulfur atoms, in the order listed:
SMILES	HPGD inh
Cc1cc(C)c(S(C)(=O)=O)c(S(=O)c2ccc(Cl)cc2)n1 (stereo not given)	-20.8%
CSc1nnnn1CCn1nnnc1SC	-21.2%
CCN(CC)S(=O)(=O)c1cccc(NC(=O)CCSc2ccc(Cl)cc2)c1	-11.7%
CCc1nc(SCC(=O)Nc2cc(C)on2)c2c(C)c(C)sc2n1	-0.7%
CSCCC(C(=O)NCc1cccs1)N1C(=O)c2ccccc2C1=O (stereo not given)	-6.2%
O=S(=O)(NC1=NCCCCC1)c1cccs1	-18.8%
Cc1nn(S(=O)(=O)c2ccc(Cl)cc2)c(C)c1Sc1ccc([N+](=O)[O-])cc1	-17.2%

Going on with the list.
SMILES	HPGD inh
CCc1c(C)nc(N)n2c(SCC(=O)N3CCCc4ccccc43)nnc12	-0.2%
CCOC(=O)C1CCN(Cc2coc3ccc(Cl)cc3c2=O)CC1	-4.9%
COc1ccc(N2CCN(C(=O)CSc3ncnc4c3cnn4-c3ccc(OC)cc3)CC2)cc1	-8.7%
COc1ccc(C2C(=O)N(CCc3ccccc3)CC(=O)N2C2CCCC2)cc1 (stereo not given)	-0.4%
CC(C)Oc1ccccc1C1Nc2ccccc2C(=O)N1c1ccc2c(c1)OCCO2 (stereo not given)	?
CCCC(C(=O)NCC1CCCO1)N(Cc1ccco1)C(=O)CNS(=O)(=O)c1ccc(F)cc1 (stereo not given)	-2.1%
Cc1nc(Cl)sc1C(=O)Nc1ccccc1	-16.3%
COc1cccc(Cn2c(NCc3cccnc3)nc3c2c(=O)n(C)c(=O)n3C)c1	-10.0%
O=C(Cn1c(C(=O)N2CCN(C3CCCCC3)CC2)cc2sccc21)c1ccccc1	-6.9%
COc1ccc(/C=N\NC(=O)CCN2CCN(c3ccccc3)CC2)cc1OC	-18.4%
O=C(OCCN1CCN(c2ncc(C(F)(F)F)cc2Cl)CC1)c1ccc(F)cc1	-3.4%
Cc1noc(C)c1S(=O)(=O)N1CCC(Cc2ccccc2)CC1	-9.3%
COc1ccc2c(C)c(C(=O)NCC(C)O)oc2c1OC (stereo not given)	?
COC(=O)[C@@H]1C[C@H]1[C@@H](NC(=O)c1cc(C)nn1C)c1ccccc1	-12.7%
O=C(CC(NCCc1ccccc1)C(=O)O)Nc1ccc(O)cc1 (stereo not given)	-2.8%
COc1cccc(N(CC(=O)NCCSc2ccccc2)S(C)(=O)=O)c1	-5.9%
O=C(Nc1nc(-c2cccs2)cs1)c1cc2ccccc2oc1=O	-12.7%
CCCCOc1ccc(C(=O)NCC(=O)OC2CCOC2=O)cc1 (stereo not given)	-3.6%
CCOC(=O)c1c(CN2CCOCC2)n(C)c2cc(Br)c(O)c(CN(C)C)c12	-17.9%&-4.3%
CC1SCCN1S(=O)(=O)c1ccc2ccccc2c1 (stereo not given)	-2.8%
Brc1ccc2c(c1)C(c1cccnc1)=NNC(c1cccs1)=N2	-2.7%
COc1cc(/C=N/NC(=O)c2ccc3ccccc3c2)ccc1Oc1ccc([N+](=O)[O-])cn1	-5.5%
